# YopH PTP inh: inhibitors of Yersinia enterocolitica YopH tyrosine phosphatase; inhibition, %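 (about 10 µM by stock and volumes)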; actives 0.16% (n = 140,000); fluorescence Ex485/Em525;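 active = inhibition of 50% or more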;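 also: controls were vehicle for no effect and minimum signal wells for full effect; inactives centre near -20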
# Mtb growth: M. tuberculosis H37Rv growth inhibitors, H37Rv strain (AID 1626). actives 0.95% (n = 220,000). M. tuberculosis H37Rv growth inhibition; higher % means a stronger effect. inhibition, % at 10 µM; hits with a dose series show IC50 in µM;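 active = confirmed in a dose series; inconclusive = inhibition above 80% but not taken into the dose series; inactive = below 80% or under 30% at every dose of the series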;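 also: bacteria incubated seven days before Alamar blue readout; 0% = bacteria only wells and 100% = bacteria with antibiotic wells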
# Arbovirus anti: arbovirus infection inhibition. AID 1251. inhibition, % at 10 µM. actives 0.37% (n = 200,000). arbovirus infection cell-based antiviral screen;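 active = inhibition from about 30%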;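 also: bluetongue infection of BSR cells; cell survival read as ATP light after 72 h; 0% = infected wells without compound and 100% = uninfected wells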
# Mtb betalactam: beta-lactam sensitization of Mtb H37Rv; M. tuberculosis H37Rv growth with meropenem, percent inhibition; hits of this screen are not shown here; inhibition, % at 25 µM; actives 0.27% (n = 330,000);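 active = about 74% or more and at least 40 points above the plate without the antibiotic, then above 30% in a dose series; inconclusive = first-round hits that could not be retested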;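 also: growth measured after seven days incubation then overnight dye step; 0% = bacteria only wells and 100% = bacteria with antibiotic; twin plates without the antibiotic show which effects depend on it; some results filed as inactive read as strong as hits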
# RecA splice inh: Mtb RecA intein splicing inhibition; cell-free RecA intein splicing, fluorescence; actives 0.75% (n = 290,000); inhibition, %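 (about 9 µM by stock and volumes)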; in the data active = inhibition above about 30%; inconclusive = no clear call, values can overlap the other calls;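 also: 0% = vehicle wells and 100% = reference inhibitor control wells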
# Target sequence (P9WHJ3 whole entry, looked up, canonical isoform): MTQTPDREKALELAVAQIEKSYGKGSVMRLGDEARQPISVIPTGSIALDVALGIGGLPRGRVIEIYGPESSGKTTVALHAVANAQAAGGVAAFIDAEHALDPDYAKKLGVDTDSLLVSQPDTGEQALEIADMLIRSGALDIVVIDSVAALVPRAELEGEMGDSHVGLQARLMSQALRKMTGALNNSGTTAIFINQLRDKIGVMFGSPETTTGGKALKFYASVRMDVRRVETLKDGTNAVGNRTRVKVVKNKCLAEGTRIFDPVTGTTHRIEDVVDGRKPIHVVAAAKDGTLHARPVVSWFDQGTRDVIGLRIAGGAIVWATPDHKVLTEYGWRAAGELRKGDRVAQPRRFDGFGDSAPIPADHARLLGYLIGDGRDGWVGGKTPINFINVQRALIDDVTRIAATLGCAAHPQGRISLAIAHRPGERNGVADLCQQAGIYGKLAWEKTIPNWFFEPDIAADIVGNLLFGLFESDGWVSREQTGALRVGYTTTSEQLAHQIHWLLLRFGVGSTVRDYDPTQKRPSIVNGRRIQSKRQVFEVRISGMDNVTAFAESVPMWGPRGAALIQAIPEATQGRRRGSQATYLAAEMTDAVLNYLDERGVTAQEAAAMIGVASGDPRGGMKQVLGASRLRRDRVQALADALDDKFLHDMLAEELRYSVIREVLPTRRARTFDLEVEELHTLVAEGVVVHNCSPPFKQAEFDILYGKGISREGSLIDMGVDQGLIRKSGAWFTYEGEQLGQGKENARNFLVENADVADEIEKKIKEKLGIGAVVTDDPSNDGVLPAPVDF
# Arbovirus anti repeat: also measured in Arbovirus anti; calls as there; inhibition, %; measured here: 10K subset replicate screen; many hits read low in the repeat;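 first of two repeat runs on a subset; 0% = infected and 100% = uninfected wells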
# * marks the source's active call; other numbers are inactive results; ? = inconclusive; . = not tested or not shown. A portion of the library (hit frequency here may not be typical).
SMILES,YopH PTP inh,Mtb growth,Arbovirus anti,Mtb betalactam,RecA splice inh,others
Cc1c(N=C/C=C2/N(C)c3ccccc3C2(C)C)c(=O)n(-c2ccccc2)n1C,-31,4%,-1,4,-0.3,
Cc1ccc2c([N+](=O)[O-])cccc2n1,-22,0%,1,7,3.8,
CC1CCCCC1NC(=O)c1cccc(S(=O)(=O)N2CCN(Cc3ccccc3)CC2)c1 (stereo not drawn),.,.,.,-8,5.0,
Cc1ccc(OCC(O)Cn2c(N3CCOCC3)nc3c2c(=O)[nH]c(=O)n3C)cc1 (stereo not drawn),-21,13%,-1,0,-4.1,
COC(=O)c1ccc(Cn2nc(-c3cc(C)ccc3C)ccc2=O)cc1,.,.,.,8,-0.4,
NC(=O)[C@@H]1CCCN1Cc1nc(-c2ccc(C(F)(F)F)cc2)no1,.,9%,8,-8,1.5,
Cc1ccc(C)c(S(=O)(=O)N2C(=S)NC(=O)C2CC(C)C)c1 (stereo not drawn),-27,-3%,18,13,-0.1,
O=C(O)CCCC(=O)Nc1ccc(S(=O)(=O)Nc2nccs2)cc1,.,.,.,7,-9.5,
CCOC(=O)C1=C(C)N[C@@]2(O)c3ccccc3C(=O)[C@@]12O,35,-6%,1,-8,7.1,
O=S(=O)(c1ccc(Cl)cc1)N1CN(CC2CCCO2)c2nc3ccccc3nc21 (stereo not drawn),.,.,.,-5,6.4,
C/C(=N\NC(=O)c1ccccc1C)c1ccc(N2CCOCC2)cc1,-53,1%,0,2,-0.4,
Cc1sc2ncnc(Sc3nnnn3-c3ccc(Cl)cc3)c2c1C,-7,-1%,-25,-4,7.6,
Oc1c(Br)cc(Br)cc1C=Nc1cccnc1,.,.,.,1,-1.1,
CCC(c1nnnn1C1CCCC1)N1CCN(C(=O)c2ccco2)CC1 (stereo not drawn),-43,-7%,-3,0,2.8,
CCc1ccc(/C=N/Nc2nn[nH]n2)cc1,-25,-7%,-1,0,-3.3,
CCC1CCCCN1S(=O)(=O)c1ccc(NC(=O)c2snnc2C)cc1 (stereo not drawn),.,.,.,-8,5.8,
NC(=O)C1CCC(NC(=O)OCc2ccccc2)CC1 (stereo not drawn),-33,1%,-1,-8,-0.6,
COc1ccc(C2c3ccc(O)cc3Oc3ncn4nc(-c5ccccn5)nc4c32)cc1OC (stereo not drawn),.,0%,.,11,2.3,
C=CCOc1ccc(/C=N/NC(=O)C(=O)N2CCCCCC2)cc1OC,.,.,.,1,1.2,
O=C(COc1ccc(Cl)cc1[N+](=O)[O-])N/N=C/c1cccs1,.,6%,3,-6,-1.8,
Cc1ccc(-n2c(=O)c3ccc(C(=O)NCc4ccco4)cc3n(Cc3ccccc3C#N)c2=O)cc1,-29,23%,2,-3,0.8,
CC1CCC(NC(=O)c2cccc(S(=O)(=O)N3CCN(c4ccc(F)cc4)CC3)c2)CC1 (stereo not drawn),.,.,.,-12,1.7,
CCCCCC(O)(c1ccc(OCC)cc1)C(CN1CCOCC1)c1ccccc1 (stereo not drawn),.,.,.,18,13,
CCN(CC)S(=O)(=O)c1ccc(C(=O)OCC(=O)c2ccc3c(c2)NC(=O)CO3)cc1,-35,-4%,2,1,-1.2,
CCCCC(C(=O)O)C(C)CC(=O)Nc1nccs1 (stereo not drawn),.,-2%,.,-3,-3.4,

# Remaining list, next part.
SMILES,YopH PTP inh,Mtb growth,Arbovirus anti,Mtb betalactam,RecA splice inh,others
Clc1ccc(-c2nnc3ccccn23)cc1,-28,-4%,7,-1,0.5,
COc1ccc(NC(=S)N2CCCCCC2)cc1OC,.,-6%,-2,4,11,
CCOc1ccc(NC(=O)CN(C)C(=O)c2cccnc2SC)cc1OCC,.,.,.,-12,-0.1,
O=C1[C@@H]2Cc3c([nH]c4ccccc34)C(c3cccc([N+](=O)[O-])c3)N2C(=O)CN1CCCO (stereo partly drawn),.,.,.,9,4.2,
Cn1c(=O)c2c(nc(NCc3cccnc3)n2Cc2ccccc2Cl)n(C)c1=O,.,2%,4,5,3.3,
COc1ccc(NC(=O)CC2C(=O)N(CCc3ccccc3)C(=S)N2Cc2cccnc2)cc1 (stereo not drawn),-15,4%,-18,2,3.3,
OCCNc1nc(-c2ccccc2)nc2c1oc1ccccc12,.,2%,.,-8,-3.4,
COc1ccc(CCNC(=O)CC(c2ccccc2)c2cc(C)ccc2O)cc1OC (stereo not drawn),.,.,.,-6,4.8,
COc1ccc(-n2ncc3c(N4CCc5ccccc54)ncnc32)cc1,11,-4%,-9,6,-1.5,
Cc1ccccc1OCC1Cn2c(nc3c2c(=O)[nH]c(=O)n3C)O1 (stereo not drawn),-7,-7%,-10,-2,-3.0,
O=C(CN1C(=O)NC2(CCc3ccccc32)C1=O)c1c[nH]c2ccccc12 (stereo not drawn),.,.,.,-11,-0.4,
Cc1c(NC(=O)c2cccnc2C(=O)O)cccc1C(=O)O,-24,-4%,-9,0,-1.3,
CC(=O)N(c1ccccc1)c1nc(/C=C/C(=O)Nc2c(C)cc(C)cc2C)cs1,-44,3%,4,-1,-2.4,
COC(=O)c1sccc1NC(=O)C1CC1,.,-10%,.,3,0.6,
Cc1nnc(N(Cc2ccco2)C(=O)c2ccno2)s1,-46,0%,1,-6,-0.7,
COc1ccc(CC(=O)NCc2nc(-c3ccccc3)no2)cc1,.,11%,2,-4,0.0,
Cc1cccc(N=C(NO)c2nonc2N)c1,-29,-5%,6,-6,0.0,
O=C1C2CCN(CC2)[C@@H]1Cc1ccc2ccccc2c1O,-19,-6%,14,-7,-6.3,
CC(C)[C@H](NC(=O)c1cccc(S(=O)(=O)N2CCCC2)c1)c1nc2ccccc2[nH]1,-33,-1%,-11,-13,-0.9,
CC1CCN(C(=O)c2[nH]cnc2C(=O)N[C@@H](C)C(=O)OCc2ccccc2)CC1,.,-9%,.,-6,0.1,
COc1ccccc1/C=C1\CCCC2=C1Nc1nnnn1C2c1ccccc1OC (stereo not drawn),-7,8%,-42,95,.,
Cc1cc(NC(=O)c2cccc(S(=O)(=O)N(C)C)c2)n(-c2ccccn2)n1,-18,-3%,-6,0,2.1,
CC1S/C(=N/N=C/c2ccco2)N(Cc2ccccc2)C1=O (stereo not drawn),.,6%,.,21,3.9,
COc1cc(OC)cc(C(=O)N2CCC3(CC2)NCCc2[nH]cnc23)c1,.,.,.,-5,1.2,
O=C(C1CCCN(S(=O)(=O)c2ccccc2)C1)N1CCN(c2ccc(F)cc2)CC1 (stereo not drawn),.,.,.,12,-2.6,

# Other structures.
SMILES,YopH PTP inh,Mtb growth,Arbovirus anti,Mtb betalactam,RecA splice inh,others
COC(=O)c1cc(OC)c(OC)cc1NC(=O)CN1CCOCC1,-8,3%,0,62,2.0,
CCN(CC)S(=O)(=O)c1ccc2c(c1)nc(SCC(=O)N1CCCCCC1)n2-c1ccc(OC)cc1,-8,4%,1,-9,5.8,
COc1cc(/C=C2\COC/C(=C\c3ccc(O)c(OC)c3)C2=O)ccc1O,.,5.7µM*,.,99,-2.5,
Cn1c(=O)c2c(nc(NCc3ccccc3)n2CC(N)=O)n(C)c1=O,.,-8%,.,1,-4.1,
CCCCC(=O)Nc1ccccc1CC,.,20%,.,-4,-0.9,
Cc1ccc(-c2nc(CS(=O)(=O)CC(=O)NCCN3CCOCC3)c(C)o2)cc1,.,.,.,5,-2.0,
Nc1ccc(Oc2ccc(Cl)cc2)cc1,-1,76%,-10,98,2.0,
NC(=O)/C=C\c1cn(-c2ccccc2)nc1-c1ccc2c(c1)OCCO2,-25,8%,-15,5,-2.0,
CSCCC(NS(=O)(=O)c1ccc2c(c1)oc(=O)n2C)C(=O)NC1CCC(C)CC1 (stereo not drawn),-31,4%,-2,0,-2.1,
CCC(C)NC(=O)Cc1c(C)c2cc3c(cc2oc1=O)OC(C)(C)CC3 (stereo not drawn),.,.,.,-7,-1.0,
COc1ccc(N=C2SC(CC(=O)Nc3ccc(OC)cc3OC)C(=O)N2C)cc1 (stereo not drawn),9,-9%,-9,-20,.,
C=C(C)CSc1cc(C)nc2c(-c3ccccc3)c(C)nn12,.,4%,.,10,15,
CCN1C(=O)C(=O)N(CC(=O)N(C)CC(=O)Nc2ccccc2Cl)C1=O,.,.,.,-9,0.0,
O=C(Nc1cccc(F)c1)C1CCN(C(=O)c2ccccc2Cl)CC1,-5,1%,-7,-7,-0.5,
C(=N\Nc1nncn1/N=C/c1ccco1)/c1ccco1,.,2%,.,-3,-2.7,
Cc1cc(C(=O)Nc2cccc([N+](=O)[O-])c2C)cs1,.,.,.,-4,-1.2,
CCC(=O)/C=C1/Sc2ccc(OC)cc2N1CCO,.,-3%,-3,7,-5.3,
COc1ccc(Cl)cc1Nc1nc(C)nc2c1nnn2Cc1ccccc1,.,.,.,5,0.4,
CCc1ccc(NC(=O)CCS(=O)(=O)c2ccc(Br)cc2)cc1,.,.,.,20,-1.4,
CCN1CCN(C(=S)c2ccc(O)cc2)CC1,.,2%,-3,-1,-2.1,
C=CCc1cccc2cc(C(=O)NCc3ccc(C(=O)OCC)o3)c(=O)oc12,-27,-2%,2,3,0.6,
CCN1CCN(C(c2ccccc2)c2nnnn2Cc2ccc(OC)cc2)CC1 (stereo not drawn),.,0%,-3,-3,-1.8,
Cn1nc(-c2ccc(N3CCCCC3)c(NC(=O)c3ccco3)c2)c2ccccc2c1=O,-14,?,-12,95,2.3,
CC(=O)N1CCOc2ccc(S(=O)(=O)NCCc3ccc(Cl)cc3)cc21,.,.,.,-2,0.4,
COc1ccc(CCNC(=O)C(=O)NCC2CCCN2S(=O)(=O)c2cccs2)cc1OC (stereo not drawn),.,.,.,-17,1.2,

# Following part
SMILES,YopH PTP inh,Mtb growth,Arbovirus anti,Mtb betalactam,RecA splice inh,others
CCCCNC(=O)CC1C(=O)N(Cc2ccccc2)C(C)c2nc3ccccc3n21 (stereo not drawn),-49,-5%,1,-2,1.7,
COc1ccccc1P(=O)(c1ccccc1)c1ccc([N+](=O)[O-])cc1 (stereo not drawn),.,.,.,-2,-0.8,
COc1ccc(NC(=O)Cn2cnc3sc(C)c(S(=O)(=O)N4CCOCC4)c3c2=O)c(OC)c1,.,0%,3,-8,-6.0,
CCOC(=O)CSc1nnc(Cc2ccccc2)n1-c1ccc(C)cc1,-11,-8%,9,-13,3.4,
CCCCc1nc(SCC(=O)Nc2nnc(CCCC)s2)n[nH]1,.,4%,5,0,0.2,
Cc1cccc(NC(=O)CCc2ccc(C)o2)c1,-35,4%,4,-8,2.8,
CC(=O)Nc1ccc(NC(=O)C2(C)CC2(Cl)Cl)cc1 (stereo not drawn),.,-5%,3,2,-0.1,
Cc1nn(-c2ccccn2)c2c1C(c1c(F)cccc1Cl)C1=C(N2)c2ccccc2C1=O (stereo not drawn),-14,9%,2,9,4.3,
O=C(COC(=O)c1ccc(N2CCCC2=O)cc1)c1ccc(OC(F)F)cc1,.,.,.,6,-1.8,
O=C(NCC1CCCN1S(=O)(=O)c1cccs1)c1cccc(F)c1 (stereo not drawn),.,.,.,-1,1.0,
O=C(C1CCCCN1S(=O)(=O)c1ccccc1[N+](=O)[O-])N1CCCC1 (stereo not drawn),.,-1%,4,-3,-3.6,
COc1cc(Cl)c(S(=O)(=O)NCc2cccnc2)cc1Cl,-5,-9%,-1,8,-1.5,Arbovirus anti repeat=0
Nn1c(SCC(=O)Nc2nccs2)nnc1-c1ccccn1,.,.,.,-4,-3.0,
O=C(C1=NNCC1c1ccccc1)C1OC1c1ccccc1 (stereo not drawn),.,1%,.,-1,1.9,
CCOc1cccc(C2C(C(=O)c3ccc(C)o3)=C(O)C(=O)N2c2nccs2)c1 (stereo not drawn),-44,-10%,-7,-7,-9.7,
CCOC(=O)CC1C(=O)NCCN1S(=O)(=O)c1cc(Cl)c(Cl)cc1Cl (stereo not drawn),-39,-9%,5,0,.,

# Filtered by structure: those above with fluorine.
SMILES,YopH PTP inh,Mtb growth,Arbovirus anti,Mtb betalactam,RecA splice inh,others
NC(=O)[C@@H]1CCCN1Cc1nc(-c2ccc(C(F)(F)F)cc2)no1,.,9%,8,-8,1.5,
CC1CCC(NC(=O)c2cccc(S(=O)(=O)N3CCN(c4ccc(F)cc4)CC3)c2)CC1 (stereo not drawn),.,.,.,-12,1.7,
O=C(C1CCCN(S(=O)(=O)c2ccccc2)C1)N1CCN(c2ccc(F)cc2)CC1 (stereo not drawn),.,.,.,12,-2.6,
O=C(Nc1cccc(F)c1)C1CCN(C(=O)c2ccccc2Cl)CC1,-5,1%,-7,-7,-0.5,
Cc1nn(-c2ccccn2)c2c1C(c1c(F)cccc1Cl)C1=C(N2)c2ccccc2C1=O (stereo not drawn),-14,9%,2,9,4.3,
O=C(COC(=O)c1ccc(N2CCCC2=O)cc1)c1ccc(OC(F)F)cc1,.,.,.,6,-1.8,
O=C(NCC1CCCN1S(=O)(=O)c1cccs1)c1cccc(F)c1 (stereo not drawn),.,.,.,-1,1.0,

# High-throughput results (PubChem)
